Screening results: PubChem BioAssay, several laboratories
Rce1 inhib: yeast Ras-converting enzyme inhibition; yeast membranes, quenched prenylated peptide cleavage fluorescence; AID 2563; calls only; actives 0.27% (n = 290,000); Q03530;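 active = fall in fluorescence gain of 50% or more versus controls, with final raw signal at or below 3038400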;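 note: plate controls were neutral control wells for no effect and wells lacking membranes for full effect; tested at 10 µM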
eIF4H inh: inhibitors of RNA binding by human eIF4H; eIF4H fluorescence polarization binding assay; inhibition, % at 35 µM; actives 0.94% (n = 290,000);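 active = 50% or more with normal probe brightness, or confirmed in later tests; about a fifth of its hits are not listed in these tables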;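 note: calls also rest on retests at 20 µM and on dose response follow-up; 0% = protein and probe with vehicle and 100% = probe without protein; strong numbers were not always called active; many hits fall short of the cut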
Env fusion inh: HIV envelope-mediated fusion inhibition | HeLa-JRFL Env/CEM21 cell fusion, luciferase | inhibition, % at 12.3 µM | actives 1.1% (n = 360,000);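 active = mean replicate inhibition score of at least 50 and every replicate individually at or above 50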;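 note: 0% = plate neutral controls and 100% = maraviroc near 300 nM; one replicate is shown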
MT1-MMP act inh: MT1-MMP (human) activation inhibition | actives 0.061% (n = 360,000) | AID 651647 | GFP/RFP ratio change, % at 20 µM | P50281 | HT1080 RFP-PRO-GFP cells, GFP/RFP ratio fluorescence, overnight; percent of plate control window, DMSO zero;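 active = GFP/RFP ratio change of at least 30% with cell ATP level not reduced by more than half and red fluorescence within 50% of control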; note: strong numbers were not always called active
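Material: RFP-PRO-GFP reporter HT1080 cells. Dosing: single-point 20 µM compound, 1% DMSO. Controls: DMSO and RFP-L50D-GFP cell wells. Timing: cells overnight before dosing, compound overnight, 37 °C, 5% CO2. Measure: GFP/RFP fluorescence ratio.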
UUG fidelity: modulators of start codon recognition fidelity in yeast; S. cerevisiae UUG-firefly luciferase reporter, luminescence/redox ratio; activity score, % at 18.7 µM; actives 0.13% (n = 350,000); AID 602363;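 active = replicate mean at a twofold rise or more, about +100% in these data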;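 note: firefly luciferase made from a UUG start codon reports start codon fidelity; reporter light over untreated wells divided by growth signal over untreated wells; some hits fall short of that in this replicate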
PABP FP inh: blocks human PABP binding to poly(A) RNA. fluorescence polarization. inhibition, % at 35 µM. actives 1% (n = 290,000). AID 2014;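 active = 50% or more with normal probe brightness, or confirmed in later tests; about a fifth of its hits are not listed in these tables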;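 note: calls also rest on retests at 20 µM and on dose response follow-up; controls were probe without protein and protein plus probe with vehicle; some compounds called inactive have numbers as strong as hits; many hits fall short of the cut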
Target sequence (P11940 whole entry, looked up): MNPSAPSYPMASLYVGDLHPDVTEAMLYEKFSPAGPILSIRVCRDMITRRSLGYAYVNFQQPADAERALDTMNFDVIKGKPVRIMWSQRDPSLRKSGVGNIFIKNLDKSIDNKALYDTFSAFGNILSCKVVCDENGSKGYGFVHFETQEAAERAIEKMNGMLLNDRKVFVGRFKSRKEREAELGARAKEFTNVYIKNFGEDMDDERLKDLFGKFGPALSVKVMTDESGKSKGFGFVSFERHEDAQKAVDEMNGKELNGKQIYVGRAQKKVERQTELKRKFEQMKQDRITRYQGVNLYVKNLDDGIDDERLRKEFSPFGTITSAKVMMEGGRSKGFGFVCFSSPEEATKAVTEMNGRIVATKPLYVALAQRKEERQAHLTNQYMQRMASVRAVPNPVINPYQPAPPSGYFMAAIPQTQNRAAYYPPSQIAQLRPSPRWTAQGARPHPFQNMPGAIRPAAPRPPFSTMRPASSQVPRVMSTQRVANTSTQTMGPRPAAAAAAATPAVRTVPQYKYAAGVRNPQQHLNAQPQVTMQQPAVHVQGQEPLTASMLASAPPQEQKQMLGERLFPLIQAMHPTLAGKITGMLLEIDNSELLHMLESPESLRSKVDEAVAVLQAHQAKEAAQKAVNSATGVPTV
CSC inhib: blocks cancer stem cells; cancer stem cell-like cells viability, luminescence; inhibition, % at 7.5 µM; actives 1.1% (n = 300,000);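 active = mean at 75% or more and at least half the replicates too; tested in HMLE shEcad cells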;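 note: 0% = median of negative and 100% = median of positive control wells; the first replicate is given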
eIF4H inh retest: also measured in eIF4H inh; calls as there; inhibition, %; compound at 20 µM; confirmation average;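 mean of two retest wells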
PABP FP inh retest: recorded beside PABP FP inh, whose call it bears; inhibition, %; compound at 20 µM; confirmation repeats;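 mean of two retest wells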
MT1-MMP act inh RFP: also measured in MT1-MMP act inh; calls as there; RFP signal change, %; measured here: RFP expression control read;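 0 = vehicle wells; hits needed this value within 50% of zero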
An asterisk follows results filed as active; i = inactive; . = not tested or not shown; + = active, no number; & = joins results of further samples.

SMILES | Rce1 inhib | eIF4H inh | Env fusion inh | MT1-MMP act inh | MT1-MMP act inh RFP | UUG fidelity | PABP FP inh | CSC inhib | others
Cc1ccc(C(=O)N2CCc3cc4c(cc3C2C)OCCCO4)cc1 (stereo unspecified) | i | 7 | 10 | -1 | -7 | -1 | 4 | 0
CCOc1ccccc1N=C1SC(CC(=O)Nc2ccc(OC)cc2OC)C(=O)N1CCC1=CCCCC1 (stereo unspecified) | i | 2 | 20 | -20 | -17 | -10 | 1 | 14
Cc1cc(C(=O)NCC(=O)Nc2c(C)cccc2C)c2ccccc2n1 | . | . | . | 2 | 2 | -14 | . | -5
O=C(Nc1ccc(N2CCCCC2)cc1)c1ccccn1 | . | -14 | . | 3 | -1 | . | -4 | -4
NC(=O)COC(=O)c1ccc2c(c1)S(=O)(=O)c1ccccc1C2=O | . | -13 | -22 | 0 | 2 | 3 | 2 | -14
O=c1c2c3c(sc2ncn1/N=C/c1ccccc1)CCCC3 | i | -4 | . | 3 | 2 | -6 | -8 | 3
O=C(c1ccccc1NS(=O)(=O)c1cccc([N+](=O)[O-])c1)N1CCCC1 | i | -6 | 0 | -7 | -1 | -8 | 0 | 1
CCN(C[C@H]1N[C@@](CC)(C(=O)OC)[C@H]2C(=O)N(Cc3ccccc3)C(=O)[C@@H]12)C(C)=O | . | . | 8 | 0 | 1 | -28 | . | .
Cn1cnnc1SCC(=O)Nc1sc2c(c1C(N)=O)CCC2 | i | 76* | . | -21 | -4 | -6 | 50* | -27 | eIF4H inh retest=88*;PABP FP inh retest=88*
Cc1ccc(-n2ncc3c(NCCCN4CCCC4=O)ncnc32)c(C)c1 | i | 11 | 17 | -1 | 1 | . | 32 | -34

Structural class, the entries above containing a thiophene ring, fused or not
SMILES | Rce1 inhib | eIF4H inh | Env fusion inh | MT1-MMP act inh | MT1-MMP act inh RFP | UUG fidelity | PABP FP inh | CSC inhib | others
O=c1c2c3c(sc2ncn1/N=C/c1ccccc1)CCCC3 | i | -4 | . | 3 | 2 | -6 | -8 | 3
Cn1cnnc1SCC(=O)Nc1sc2c(c1C(N)=O)CCC2 | i | 76* | . | -21 | -4 | -6 | 50* | -27 | eIF4H inh retest=88*;PABP FP inh retest=88*

Other results
SMILES | Rce1 inhib | eIF4H inh | Env fusion inh | MT1-MMP act inh | MT1-MMP act inh RFP | UUG fidelity | PABP FP inh | CSC inhib | others
COCC(=O)N1CCC(Oc2ccc(C(=O)NC3CCOC(C)(C)C3)cc2)CC1 (stereo unspecified) | i | 0 | -2 | -3 | 3 | -23 | 14 | -2
O=C(NCCc1ccccc1)C1CCCN(S(=O)(=O)c2cccc3nonc23)C1 (stereo unspecified) | i | -17 | . | 2 | 1 | -7 | -1 | -4
COc1ccc(-c2nnc(SCC(=O)NCC3CCCO3)o2)cc1 (stereo unspecified) | i | -6 | 1 | 0 | 2 | -13 | -14 | -16
CC1CCCC(C)N1NC(=O)c1cccc(S(=O)(=O)N2CCc3ccccc32)c1 (stereo unspecified) | i | 1 | 1 | -2 | 0 | . | 8 | -11
O=C(Oc1ccccc1N1C(=O)C2CCCCC2C1=O)c1ccccc1 (stereo unspecified) | i | 1 | -37 | -28 | -8 | -7 | 4 | -8
Nc1nc(-c2ccc(Oc3ccccc3)cc2)cs1 | i | -4 | -19 | 1 | -5 | -46 | 11 | 26
C[C@H](CO)N1C[C@H](C)[C@@H](CN(C)Cc2ccncc2)Oc2c(NC(=O)C3CCCCC3)cccc2C1=O | . | . | -39 | -6 | 0 | -7&-40 | . | .
COc1cccc(-c2nnc(SCCC(=O)O)n2C)c1 | i | -4 | -17 | 0 | 1 | -20 | 4 | 7
FC(F)(F)c1cc(-c2ccco2)nc(NCc2ccco2)n1 | i | 45 | -7 | -1 | 4 | -18 | -1 | 11
Cc1ccc(S(=O)(=O)CCc2ccccn2)cc1 | i | -6 | -85 | -1 | 4 | -27 | -9 | -4
CC(=O)N1c2c(cc(Br)cc2S(=O)(=O)NCc2ccc3c(c2)OCO3)CC1C (stereo unspecified) | i | -6 | 2 | 1 | 3 | 5 | -13 | -11
COc1ccccc1N1CCN(C(=O)c2noc(C)c2[N+](=O)[O-])CC1 | i | 10 | -3 | 8 | 2 | -4 | 4 | .
Cc1cc(C(F)F)n2ncc(C(=O)N3CCc4ccccc4C3)c2n1 | i | 4 | . | -1 | 1 | 0 | -10 | -5
CSc1n[nH]c(NC2=CC(=O)CCC2)n1 | i | -11 | -85 | -2 | 0 | -23 | -8 | -8
O=C(NC1CC1)c1cc2c(s1)CS(=O)(=O)C2 | i | 0 | 20 | 2 | 3 | -32 | -1 | .
COc1ccc(OC)c(NC(=O)CCNC(=O)Cn2cnc3ccccc3c2=O)c1 | i | 20 | -6 | 6 | 6 | . | -5 | 2
CCOc1c(S(=O)(=O)N2CCCC2)ccc(Cl)c1Cl | i | 2 | . | -2 | -2 | -1 | 4 | -4
O=C(Nc1nccs1)c1ccc(Cl)cc1[N+](=O)[O-] | i | 4 | . | -9 | -3 | 2 | 2 | 2
CC1(c2nnc(-c3cccc(Cl)c3)o2)CC(c2cccc(F)c2)=NO1 (stereo unspecified) | + | . | -12 | 0 | 3 | -8 | . | 5
COc1ccc([N+](=O)[O-])cc1NC(=O)c1cn(-c2ccc(C)c(C)c2)c(=O)c2ccccc12 | i | -3 | -5 | 1 | -1 | -7 | 1 | -2
O=C(Nc1nnc(Cc2ccc(Cl)cc2)s1)c1ccco1 | i | -8 | . | 0 | 3 | -21 | 5 | 32
COc1ccccc1C(=O)Nc1ccc2c(C)cc(=O)oc2c1 | i | 10 | -42 | 1 | 4 | -7 | 5 | 8
Nc1ncnc2c1ncn2[C@@H]1O[C@H](CNS(=O)(=O)c2ccc3c(c2)CCN(C(=O)C(F)(F)F)C3)[C@@H](O)[C@H]1O | . | . | 8 | 1 | 5 | -10 | . | .
CC1CCC(NC(=O)Cn2c(=O)oc3cc(S(=O)(=O)N4CCCC4)ccc32)CC1 (stereo unspecified) | i | -9 | -6 | -4 | -1 | -23 | -17 | 5
CCOc1ccc(NC(=O)N2CCC(n3c(=O)[nH]c4ccccc43)CC2)cc1 | i | -7 | 6 | -3 | 2 | -3 | 0 | 8
COc1cc(C(=O)NCCC(=O)N2CCC3(CC2)NCCc2[nH]cnc23)cc(OC)c1OC | i | . | 0 | -2 | 2 | 0 | . | -8
CCOC(=O)C1(C)CCCN1C(=O)c1cccc(OC)c1 (stereo unspecified) | . | . | -78 | 3 | 5 | -7 | . | .
O=C(Cc1ccc(O)cc1)N/N=C/c1cccs1 | i | -10 | -41 | 0 | 4 | -11 | -13 | -4
Cc1nc2ccc(S(=O)(=O)Nc3cccc(-c4nc5cccnc5s4)c3C)cc2s1 | i | 0 | . | 7 | -23 | -9 | 16 | 22
Cc1ccc(NC(=O)CCc2nc3sc4c(c3c(=O)[nH]2)CCCC4)c(Br)c1 | i | . | . | -6 | 1 | -13 | . | 5

4 successive compounds already listed, quoted:
SMILES | Rce1 inhib | eIF4H inh | Env fusion inh | MT1-MMP act inh | MT1-MMP act inh RFP | UUG fidelity | PABP FP inh | CSC inhib | others
Nc1ncnc2c1ncn2[C@@H]1O[C@H](CNS(=O)(=O)c2ccc3c(c2)CCN(C(=O)C(F)(F)F)C3)[C@@H](O)[C@H]1O | . | . | 8 | 1 | 5 | -10 | . | .
CC1CCC(NC(=O)Cn2c(=O)oc3cc(S(=O)(=O)N4CCCC4)ccc32)CC1 (stereo unspecified) | i | -9 | -6 | -4 | -1 | -23 | -17 | 5
CCOc1ccc(NC(=O)N2CCC(n3c(=O)[nH]c4ccccc43)CC2)cc1 | i | -7 | 6 | -3 | 2 | -3 | 0 | 8
COc1cc(C(=O)NCCC(=O)N2CCC3(CC2)NCCc2[nH]cnc23)cc(OC)c1OC | i | . | 0 | -2 | 2 | 0 | . | -8

A draw from above in order of heavy-atom count, lowest first.
SMILES | Rce1 inhib | eIF4H inh | Env fusion inh | MT1-MMP act inh | MT1-MMP act inh RFP | UUG fidelity | PABP FP inh | CSC inhib | others
O=C(Nc1nnc(Cc2ccc(Cl)cc2)s1)c1ccco1 | i | -8 | . | 0 | 3 | -21 | 5 | 32
COc1ccccc1C(=O)Nc1ccc2c(C)cc(=O)oc2c1 | i | 10 | -42 | 1 | 4 | -7 | 5 | 8
Cc1nc2ccc(S(=O)(=O)Nc3cccc(-c4nc5cccnc5s4)c3C)cc2s1 | i | 0 | . | 7 | -23 | -9 | 16 | 22
Nc1ncnc2c1ncn2[C@@H]1O[C@H](CNS(=O)(=O)c2ccc3c(c2)CCN(C(=O)C(F)(F)F)C3)[C@@H](O)[C@H]1O | . | . | 8 | 1 | 5 | -10 | . | .

(continued)
SMILES | Rce1 inhib | eIF4H inh | Env fusion inh | MT1-MMP act inh | MT1-MMP act inh RFP | UUG fidelity | PABP FP inh | CSC inhib | others
COCc1nnc(NC(=O)CCSc2ccccc2)s1 | i | -4 | -107 | -1 | -3 | . | -8 | 3
CC(=O)N1CCc2ccccc2C1CC(=O)O (stereo unspecified) | i | 7 | 3 | 3 | 1 | . | -1 | -10
C=C1[C@H]2O[C@H]2[C@@H](OC(C)=O)[C@@]2(C)[C@@H](OC(C)=O)C[C@@H](OC(C)=O)[C@@](C)(O)[C@@H]2[C@@H](OC(C)=O)[C@@]2(O)[C@@H](C)C(=O)O[C@H]2[C@H]1Cl | . | . | 1 | -1 | 4 | -7 | . | .
COC(=O)N/N=C(\C)c1ccc(OC(F)F)cc1OC(F)F | i | -12 | 4 | -1 | 3 | . | -2 | -10
COCc1cc(=O)n2[nH]c(-c3cccc(Br)c3)cc2n1 | i | -2 | . | -3 | 0 | -3 | 2 | -11
CCOC(=O)C1C(C(=O)OC)=C(C(=O)OC)c2ccccc2N1S(=O)(=O)C(F)(F)F (stereo unspecified) | . | . | 26 | 1 | 6 | -10 | . | .
COc1ccc(-n2ncc3c2CC(C)(C)CC3NC(=O)c2ocnc2C)cc1 (stereo unspecified) | i | 3 | 7 | 0 | 0 | -17 | -6 | 4
Cn1c(SCCOc2ccccc2Cl)nnc1-c1ccncc1 | i | -1 | . | 2 | 0 | 17 | 5 | -15
CNc1nc(SCC(=O)OC)nc(N2CCOCC2)n1 | i | 1 | -110 | 0 | 7 | -21 | 4 | -9
C=CCNC(=S)N1CCc2c([nH]c3ccccc23)C1C (stereo unspecified) | i | -7 | -4 | 1 | -2 | 1 | -4 | 8
CC(C)CNS(=O)(=O)c1ccc(S(=O)(=O)N2CCCN(Cc3ccccc3)C2)cc1 | i | 1 | . | 0 | 2 | . | 3 | .
C/C(=N\Nc1ccc([N+](=O)[O-])cc1)c1ccc(N)cc1 | i | -2 | . | -12 | -1 | -15 | 14 | 20
O=C(CSc1nccn1-c1ccccc1)N1CCc2ccccc21 | i | 2 | . | -4 | 0 | -23 | 2 | -16
Cn1nc(-c2ccccc2)cc1NC(=O)c1cccs1 | i | -2 | -7 | 3 | 1 | . | -5 | -8
COc1ccc(OCC(=O)Nc2ccc(C)cc2)cc1 | i | -5 | -50 | 5 | 9 | -5 | -1 | .
O=c1[nH]c(-c2ccccc2)nc(-c2ccccc2)c1Cl | i | . | -13 | 0 | -1 | . | . | 2
O=C1C2=C(CCCC2)C(=O)N1CNc1ccccc1 | i | 4 | -4 | 5 | 4 | . | 5 | 3
CCOc1ccc(NC(=O)N2CCCC2C(=O)NCC2CCCO2)cc1 (stereo unspecified) | i | -13 | -8 | -1 | 0 | . | -1 | 12
CC(C)c1nc2cc(C(=O)N(C)C3CCOCC3)ccc2o1 | i | -17 | -2 | -1 | 1 | -7 | 14 | 3
